From PubChem BioAssay
T cruzi repl – blocks replication of Trypanosoma cruzi; actives 1.4% (n = 300,000); T. cruzi beta-gal in NIH3T3, luminescence, 90 h; inhibition, % (concentration not given with the values);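 active means mean inhibition across valid replicates above about 55%, limit read from the data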;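 further: signal also drops with host cell toxicity which is not excluded here; 0% = plate median of DMSO wells and 100% = zero luminescence signal; higher percent means less beta-gal luminescence so fewer parasites; stock transfer was 50 nL into about 50 µL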
Beta cell apopt – blocks beta cell apoptosis. INS-1E cytokine-induced death, ATP luminescence, 48 h; percent of positive-control rescue, neutral wells zero. protection from apoptosis, % (test concentration not listed). actives 0.8% (n = 300,000);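 active means all replicates at 75% or more, or half of them and the mean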;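 further: 0% = cytokine-treated negative control wells and 100% = positive control rescue; higher means more ATP so stronger rescue from cytokine killing; wells of about 40 µL received 100 nL stock; the first replicate is given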
UCH37 inh – blocks the human deubiquitinase UCH37; actives 0.33% (n = 330,000); inhibition, % (test concentration not listed); purified proteasome/UCH37, Ub-AMC cleavage fluorescence;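 active means mean of two replicates above 20%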;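 further: 0% = compound-free wells with enzyme and 100% = wells lacking proteasome; stock transfer was 100 nL into about 20 µL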
Target sequence (Q9Y5K5 whole entry, looked up): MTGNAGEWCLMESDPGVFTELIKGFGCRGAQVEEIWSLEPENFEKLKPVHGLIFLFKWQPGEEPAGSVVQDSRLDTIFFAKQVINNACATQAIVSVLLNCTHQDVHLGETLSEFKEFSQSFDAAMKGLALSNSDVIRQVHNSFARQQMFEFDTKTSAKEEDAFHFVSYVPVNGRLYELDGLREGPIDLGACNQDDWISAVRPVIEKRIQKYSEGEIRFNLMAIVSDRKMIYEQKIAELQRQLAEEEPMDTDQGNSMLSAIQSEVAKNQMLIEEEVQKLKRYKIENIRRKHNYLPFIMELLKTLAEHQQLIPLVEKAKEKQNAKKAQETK
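Schedule: 30 min plus 25 min, room temperature / Material: human UCH37 within purified proteasomes / Technique: AMC fluorescence intensity at 355/460 nm / Buffer or medium: pH 7.4 Tris-HCl (50 mM) with ovalbumin, ATP-MgCl2, DTT / Controls: wells without proteasome as full block, compound-free enzyme plus substrate as uninhibited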
Ecoli growth – blocks Escherichia coli growth | OD600 absorbance (no concentration beside the values) | actives 0.21% (n = 330,000) | AID 1053175 | OD600, 23 h; stronger effect = lower value;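 active means OD600 absorbance below the run mean of sample wells minus 3.6 SD, in any replicate, cut at about 0.56 in these data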;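 further: stock transfer was 300 nL into about 60 µL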
Ecoli rRNA inh – inhibitors of bacterial rRNA selective over humanized ribosomes; E. coli WT GFP vs humanized-ribosome RFP mutants, fluorescence, 24 h; stronger effect = lower value; DMSO median 0, no signal -100; GFP signal change (wild-type ribosome), % (no concentration beside the values); actives 1.6% (n = 350,000); AID 720706;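 active means significant combined selectivity score with lowered wild-type GFP, culture density cut under 30%, mutant RFP and density less affected; inactive means any of these conditions unmet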; further: one replicate is shown; some compounds called inactive have numbers as strong as hits
FGF22 binding – FGF22 (human) thermal shift binding; Q9HCT0; recombinant FGF22 thermal shift, SYPRO orange fluorescence; percent of sucrose octasulfate shift, DMSO zero; calls only at 9.99 µM; actives 1.5% (n = 340,000); AID 651658;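 active means melting point raised past a set limit in the mean and every replicate; three in four hits are not shown here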
Target sequence (Q9HCT0 whole entry, looked up): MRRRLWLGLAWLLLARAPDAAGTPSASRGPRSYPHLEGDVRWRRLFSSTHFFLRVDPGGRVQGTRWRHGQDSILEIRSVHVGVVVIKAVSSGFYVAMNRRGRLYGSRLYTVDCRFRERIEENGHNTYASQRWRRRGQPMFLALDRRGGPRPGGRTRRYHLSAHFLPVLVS
A1 inh – inhibitors of the anti-apoptotic protein A1, read as caspase activation; MEF A1-2A-BIM cells, Caspase-Glo 3/7 luminescence, 3 h; percent of clofoctol response, vehicle zero; caspase activation, % (concentration not given with the values); actives 0.066% (n = 330,000);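 active means over half of replicate activation scores above 10%, or exactly half above 10 with the replicate mean above 10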;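 further: wells of about 30 µL received 50 nL stock; many hits fall short of the cut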
MLL AF4-AF9 inh – MLL-AF4/AF9 protein interaction inhibition | actives 0.47% (n = 350,000) | inhibition, % at 10 µM | AID 651704 | AlphaScreen, biotin-AF4 peptide binding to FLAG-AF9 | P42568;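 active means every replicate reaching a set inhibition limit, whatever the replicate mean, cut at about 25% in these data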;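 further: 0% = plate neutral control median and 100% = total signal loss; the record names both 10 and 1 µM as test concentration; the first replicate is given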
Target sequence (P42568 whole entry, looked up): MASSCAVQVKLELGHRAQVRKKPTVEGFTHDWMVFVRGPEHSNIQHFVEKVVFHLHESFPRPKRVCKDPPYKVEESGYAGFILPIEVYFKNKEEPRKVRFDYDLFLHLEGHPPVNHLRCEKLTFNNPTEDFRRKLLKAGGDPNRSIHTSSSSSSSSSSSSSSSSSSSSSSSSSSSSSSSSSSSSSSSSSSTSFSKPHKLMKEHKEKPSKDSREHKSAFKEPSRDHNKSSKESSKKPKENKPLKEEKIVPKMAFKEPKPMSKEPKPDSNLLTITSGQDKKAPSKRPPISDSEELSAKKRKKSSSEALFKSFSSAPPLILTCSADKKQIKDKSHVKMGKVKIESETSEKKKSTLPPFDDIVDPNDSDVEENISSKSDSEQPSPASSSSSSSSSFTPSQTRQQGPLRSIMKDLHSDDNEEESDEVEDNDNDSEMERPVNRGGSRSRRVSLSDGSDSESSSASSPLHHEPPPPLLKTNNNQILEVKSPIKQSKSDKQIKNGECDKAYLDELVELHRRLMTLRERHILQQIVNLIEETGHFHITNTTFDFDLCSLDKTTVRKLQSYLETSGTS
Ecoli rRNA inh OD600 – second read-out of Ecoli rRNA inh, no call of its own (marks repeat the call); OD600 change, %; measured here: OD600 growth;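 optical density of the mix in the first replicate; 0 = DMSO median and -100 = no signal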
Ecoli rRNA inh RFP – recorded beside Ecoli rRNA inh, whose call it bears; RFP signal change, %; measured here: RFP humanized mutant strains;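 first replicate; 0 = DMSO median and -100 = no signal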
The depositor's hits bear a star; i = inactive; x = not tested or not shown; & = joins results of further samples. This is a subset; count on the stated rates, not on these rows.

SMILES	T cruzi repl	Beta cell apopt	UCH37 inh	Ecoli growth	Ecoli rRNA inh	Ecoli rRNA inh OD600	Ecoli rRNA inh RFP	FGF22 binding	A1 inh	MLL AF4-AF9 inh
Cc1ccc(CC(NC(=O)c2ccccc2)C(=O)NC(Cc2ccccc2)C(=O)O)cc1 (centres undefined)	7	9	2.9	0.71	10	12	-0.8	i	1.0	-2.9
CCOC(=O)C(/C=C(\C#N)C(=O)OCC)=C(/N)N1CCN(c2ccc(Cl)cc2)CC1	14	3	7.2	0.75	x	x	x	x	1.0	x
Cc1cccc(C)c1OCC(=O)NNC(=O)c1ccoc1C	-15	2	-0.7	0.71	x	x	x	x	0.1	x
O=C1C2C3C=CC(C3=C3CCCCC3)C2C(=O)N1Cc1ccccc1 (centres undefined)	17	-2	-2.9	0.7	x	x	x	x	0.0	x
Cc1ccc(NC(=O)CS(=O)CC(=O)N(CC(=O)NC2CCCC2)c2cccc(C)c2C)cc1 (centres undefined)	-16	3	1.1	0.69	-11	-7	2.5	x	0.0	x
CCOC(=O)N1CCN(C(=O)c2ccc(OCC)c(OCC)c2)CC1	4	-2	-1.8	0.74	x	x	x	x	-1.9	x
O=S1(=O)CCN(Cc2ccc(Cl)c(Cl)c2)CC1	-4	-9	1.3	0.72	x	x	x	x	-1.2	x
Cc1ccc(S(=O)(=O)Nc2ccc(S(=O)(=O)NCC3CCCO3)cc2)cc1 (centres undefined)	6	-4	3.1	0.66	0	1	-2.6	i	-0.2	-5.4
COC(=O)c1ccc(CNC(=O)c2ccc(NS(=O)(=O)c3ccc4[nH]c(=O)[nH]c4c3)cc2)cc1	-2	-4	-1.3	0.64	3	3	1.0	i	-0.3	1.2
Nc1ccc(C(=O)N/N=C/c2cccc(Oc3ccccc3)c2)cc1	14	-4	x	x	-54	-73	-13	i	0.7	0.2
Cc1ccc([N+](=O)[O-])cc1NC(=O)c1ccc2c(c1)OCO2	-17	-2	3.0	0.66	14	12	1.4	i	0.3	-4.2
c1ccc(CCc2cc3ccccc3[nH]2)cc1	x	-5	2.0	0.63	9	4	23	i	-0.2	-23
COc1ccc([N+](=O)[O-])cc1NC(=O)c1ccc(C)o1	2	-2	4.6	0.71	6	4	-0.1	i	1.3	3.8
CC(=O)Nc1ccc(NC(=O)c2ccc(NS(=O)(=O)c3cccc4cccnc34)cc2)cc1	-4	-2	3.5	0.75	10	16	57	i	1.1	-0.2
COc1ccc2[nH]c(=O)c(CN(C(=O)NC3CCCCC3)C3CCCCC3)cc2c1	-7	7	-51	0.66	11	15	-2.3	x	-1.1	x
Cc1ccsc1C(=O)Nc1nnc(-c2ccco2)o1	33	-4	3.7	0.41*	x	x	x	x	-0.4	x
O=C(NC1CCCCC1)C(c1ccccc1)N(Cc1cccnc1)C(=O)c1csnn1 (centres undefined)	-1	-15	0.0	0.65	x	x	x	i	-0.3	4.6
O=C(NCCc1nc(-c2ccccc2)cs1)c1ccc(Br)cc1	-6	-4	3.2	0.68	x	x	x	x	-0.4	x
COc1ccc(-c2coc3cc4oc(=O)c(CC(=O)O)c(C)c4cc23)cc1	1	x	6.1	0.67	1	3	-0.7	i	x	1.7
COc1cc(/C=C2/SC(=S)N(Cc3ccccc3)C2=O)ccc1O	-8	-1	6.8	0.69	-1	-9	14	x	0.2	7.8
CCCCn1c(N)c(N(CCOC)C(=O)c2ccc(-n3c(C)ccc3C)cc2)c(=O)[nH]c1=O	-15	-10	-4.5	0.71	8	-5	0.8	i	-0.9	3.0
NC(=O)C1CCN(C(=O)c2ccc(Cl)c(S(=O)(=O)N3CCCCCC3)c2)CC1	x	0	-2.7	0.68	1	3	-0.7	i	-1.3	-1.2
CCN(CC)S(=O)(=O)c1ccc(C)c(NC(=O)Cn2c(=O)cnc3ccccc32)c1	-5	x	-12	0.69	10	-3	1.4	i	-0.6	2.0
O=C(O)CCCn1cc(NC(=O)COc2ccccc2)cn1	-11	-6	1.5	0.7	6	14	-1.0	i	0.2	-1.1
CCOC(=O)c1sc(C(=O)OCC)c(OCCO)c1OCCO	7	-3	-1.1	0.68	12	16	8.1	x	-0.3	x
Carrying on.
SMILES	T cruzi repl	Beta cell apopt	UCH37 inh	Ecoli growth	Ecoli rRNA inh	Ecoli rRNA inh OD600	Ecoli rRNA inh RFP	FGF22 binding	A1 inh	MLL AF4-AF9 inh
CCN1CCN(C(=O)Nc2ccccc2OC)CC1	x	-5	4.8	0.67	x	x	x	x	0.6	x
O=C(C1Cc2ccccc2CN1S(=O)(=O)c1ccc(F)cc1)N1CCCCC1 (centres undefined)	-1	-13	0.6	0.65	x	x	x	x	0.1	x
O=C(CCc1ccccc1)NC(=S)Nc1ccc(S(=O)(=O)N2CCOCC2)cc1	-4	-6	3.3	0.68	-9	-3	4.7	i	0.5	1.0
CC1CCN(S(=O)(=O)c2ccc3c(c2)c(=O)c(C(=O)N2CCOCC2)cn3C)CC1	0	-9	5.0	0.7	4	15	-1.5	i	-0.5	1.3
O=C1/C(=C/c2cccnc2)SC(=S)N1Nc1ccccc1	7	61	0.1	0.65	1	4	-4.3	i	-0.4	-2.9
CC(C)(C)SCCNC(=O)COc1ccc(Cl)cc1	-6	-1	3.9	0.67	-19	-11	0.5	i	-0.2	1.7
Cn1c(CC(=O)Nc2ccccc2)cc2ccccc21	-14	-6	0.9	0.68	-2	1	0.0	i	1.2	-1.0
CSc1ccccc1NC(=O)COc1ccc(Cl)cc1Cl	9	-3	0.8	0.71	2	5	1.3	i	-1.2	0.3
O=CNn1cnc2c(oc3nc(-c4ccccc4)cc(-c4ccco4)c32)c1=O	5	-5	-439	0.7	5	9	3.9	i	-0.5	0.3
CC(C)=CCc1c([C@@H]2CCc3ccc(O)cc3O2)cc2c(c1O)OC(C)(C)C=C2	2	-5	3.1	0.72	x	x	x	x	-0.1	x
CC(=O)c1ccc(C(=O)Nc2ccc(N3CCOCC3)cc2)cc1	-5	-3	2.7	0.72	x	x	x	x	-0.4	x
C=CCNC(=S)N1CCN(CCNC2=CC(=O)CC(C)(C)C2)CC1	-7	-1	4.9	0.65	x	x	x	i	-0.6	-0.7
COc1ccc(-c2nnc3ccc(SCC(=O)N4CCCCC4)nn23)cc1OC	-9	x	3.7	0.74	9	6	-0.2	i	0.2	-4.6
c1ccc(CCNc2nc(-c3ccccn3)nc3ccccc23)cc1	76*	96*	x	x	-53	-80	-16	i	0.3	14
Cc1nc(C)c(/C(O)=C/c2nc3ccccc3oc2=O)s1	-10	-1	6.9	0.65	-2	7	5.2	i	0.4	-0.2
CCOC(=O)Cn1ccc(NC(=O)COc2ccc(F)cc2F)n1	8	-1	2.6	0.7	4	4	-3.0	i	0.6	0.2
CCc1ccccc1NS(=O)(=O)c1ccc2[nH]cc(C(=O)NCc3ccco3)c(=O)c2c1	-16	0	3.2	0.74	x	x	x	x	-0.2	x
Cc1[nH]c2ccc(C(=O)N3CCCC3)cc2c1C	-13	-7	0.6	0.67	4	3	2.1	i	-0.9	0.4
O=C1N=C(N2CCCCC2)SC1=C1CCCCC1	-4	-2	-6.6	0.75	x	x	x	x	-2.1	x
C=CCn1c(SCC(=O)NCCOC)nc2scc(-c3ccco3)c2c1=O	-10	-11	2.2	0.72	x	x	x	x	0.5	x
NC(=O)C1CCN(C(=O)C2CC(=O)N(Cc3ccccc3)C2)CC1 (centres undefined)	x	-1	-2.1	0.71	9	12	-0.4	i	0.2	-2.6
CCOc1ccccc1C(=O)Oc1cc(C)[nH]c(=O)c1[N+](=O)[O-]	1	-5	7.2	0.7	11	14	0.4	i	1.0	0.0
CCOc1ccccc1CN1CCNC(=O)C1CC(=O)N(C)Cc1nonc1C (centres undefined)	6	-6	x	x	17	3	4.3	i	0.1	0.6
O=C(CSc1n[nH]c(-c2cccs2)n1)N1CCN(S(=O)(=O)c2ccc3ccccc3c2)CC1	29	3	-1.5	0.68	x	x	x	x	0.3	x
O=C(c1cccc(Cl)c1)N1CCN(c2ccccn2)CC1	-1	1	-0.2	0.66	x	x	x	x	-0.2	x
Carrying on:
SMILES	T cruzi repl	Beta cell apopt	UCH37 inh	Ecoli growth	Ecoli rRNA inh	Ecoli rRNA inh OD600	Ecoli rRNA inh RFP	FGF22 binding	A1 inh	MLL AF4-AF9 inh
CCC(Sc1nc2c(cnn2-c2ccccc2)c(=O)[nH]1)C(=O)OC (centres undefined)	2	-3	7.7	0.75	-8	-16	-3.3	i	-0.3	-4.1
O=C(COC(=O)c1ccccc1Nc1ccccc1)NCc1ccco1	-5	-8	-17	0.71	x	x	x	x	0.0	x
Cc1cccc(C(=O)N2CCC(=O)N(C(COCc3cccc(Cl)c3)Cc3ccccc3)CC2)c1 (centres undefined)	17	8	3.7	0.71	-15	-22	12	i	-0.7	5.0
O=C(Nc1cccc(F)c1)c1ccc(S(=O)(=O)N2CCCCC2)cc1	3	7	6.8	0.72	-1	14	-1.0	i	0.3	-0.3
Cc1nc2sc3c(c2c(=O)n1NC(=O)CCBr)CCCC3	-3	-8	-1.5	0.72	11	3	-0.7	x	2.3	-2.3
Cc1ccc(Cc2cnc(NC(=O)C3=NCCN3)s2)cc1	-13	-7	7.6	0.63	-26	-28	-3.2	i	-1.4	-2.9
CC(C)(C)n1ncc2c(=O)n(Cc3cc(F)c(Cl)cc3Cl)cnc21	x	3	-0.6	0.77	10	3	1.3	i	-0.6	-9.0
Cc1ccsc1C(=O)NC1CCCCC1C (centres undefined)	x	-7	0.1	0.71	11	6	1.1	i	0.6	-4.0
O=C(CSc1nnc(-c2ccncc2)o1)NC1CCCCC1	-5	-4	3.9	0.69	2	-2	-0.8	i	-1.0	-1.0
COc1ccc(C(=O)Nc2ccccc2N2CCOCC2)cc1Br	10	4	4.3	0.67	-30	-38	-11	x	0.7	x
CCC(C)Nc1nc(-c2cccc(OC)c2O)nc2ccccc12 (centres undefined)	40	-11	5.0	0.77	x	x	x	x	-0.2	x
Cc1noc(C)c1NC(=O)N(C)C[C@@H]1Oc2ccc(NS(=O)(=O)c3c(C)noc3C)cc2C(=O)N([C@H](C)CO)C[C@H]1C	x	-3	0.2	0.73	4&13	1&12	0.4&-1.2	i	0.6	0.1
CCOC(=O)c1c(NC(=O)COc2cccc3c2CCN(CC)C3=O)sc2c1CCC2	1	-3	-14	0.7	x	x	x	x	0.1	x
O=C(CN1CCN(S(=O)(=O)c2ccc(Br)cc2)CC1)Nc1ccc2c(c1)OCO2	-4	-2	5.4	0.76	x	x	x	x	0.0	x
O=C(Nc1cccc([N+](=O)[O-])c1)c1ccc2snnc2c1	3	-4	4.0	0.69	6	7	-1.5	i	0.9	-0.9
COc1ccc(CCNC(=O)C2CC(c3cccc(F)c3)=NO2)cc1 (centres undefined)	-17	-4	0.8	0.66	5	-8	-4.7	i	0.2	-23
